# From PubChem
# PK Bst – alters activity of Bacillus stearothermophilus pyruvate kinase. partly purified Bacillus stearothermophilus pyruvate kinase, luminescence ATP production; ribose 5-phosphate activator present at AC10. Potency, µM. 1.2% of 51,000 active. AID 361; in the data active means potency below about 11 µM; inconclusive means mostly about 12 µM to 25 µM; inactive means weaker than that;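 the screen sought inhibitors and activators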;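 further: potency means the concentration at half of the fitted maximal effect; scaled between full activation by ribose 5 phosphate and full inhibition by luteolin; about four in five hits inhibit and the cells do not say which; series up to 57 µM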
# TsaE inh – displaces an ADP probe from E. coli YjeE (TsaE) | 0.05% of 71,000 active | P0AF67 | purified YjeE, fluorescence polarisation of a bound ADP probe | Potency, µM | AID 605; active = well fitted falling curve; inconclusive = weaker or top-dose-only fall, or a rising curve; inactive = flat or poorly fitted curve;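 further: top concentration of the series not given in the record; excess ADP was the control for the full effect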
#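 Fluorescence polarization of a BODIPY Texas Red–ADP probe (2 uM) bound to purified YjeE (10 uM) was read after 15 min room-temperature incubation with compounds. Loss of polarization marks inhibitors; ADP serves as titrated control.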
# Numbers without * were called inactive; i = inactive; u = inconclusive; x = no result given.
TsaE inh,PK Bst,molecule
i,x,C[N+](C)(C)c1cc2c(nn1)Nc1ccccc1S2
i,x,CCOC(=O)CSC(CC)C(=O)Nc1nnc(C(C)C)s1 (configuration not stated)
i,>57,CCN(Cc1ccccc1)C(=O)CSc1nc(C)cc2c1C(=O)OC2
i,>57,O=C(Nc1cccc(OC(=O)c2ccco2)c1)c1ccco1
i,>57,CCOc1ccc(OCC)c(NC(=O)CSc2nc3c(c(=O)n(C)c(=O)n3C)n2C(C)C)c1
x,>25.6,CCCSc1nnc(NC(=O)Nc2ccc(F)cc2)s1
i,x,CCCCCCCCCCCCCC(=O)O
i,x,CC(=O)Nc1cc2c(cc1C(=O)c1ccccc1)OCCO2
i,x,c1ccc2[nH]cnc2c1
i,x,COC(=O)[C@@]1(Cc2ccccc2)[C@H]2c3cc(C(=O)N4CCCC4)n(Cc4ccccc4)c3C[C@H]2CN1C(=O)c1ccccc1
i,x,O=C(O)c1cc(-c2cccs2)nc2cc3c(cc12)OCCO3
i,>57,C=CCN1CC(O)=C(c2ccccc2)C1=N
i,x,Cc1noc(COc2ccc(OCc3nc(C)no3)cc2)n1
i,>57,CCN(CC(=O)Nc1ccc2c(c1)OCCO2)c1nc(-c2cccnc2)nc2ccccc12
i,x,Cc1ccc(-n2ncc3c(NCc4ccco4)ncnc32)c(C)c1
i,x,CCOC(=O)CSC(CC)C(=O)Nc1nnc(CC)s1 (configuration not stated)
i,>57,CCOC(=O)N1CCN(S(=O)(=O)c2ccc(OCC(=O)OC)c(C)c2)CC1
i,x,CCN(CC)CCCNC(=O)c1cn(C)c2ccc(S(=O)(=O)N(C)C)cc2c1=O
i,i,OCCN1CCN(C(c2cccs2)c2ccc3cccnc3c2O)CC1 (configuration not stated)
i,>57,CCOC(=O)N1CCC2(CC1)C(C#N)=C(N)Oc1c2c(C)nn1-c1cccc(Cl)c1
i,>57,O=C(O)CCC(NS(=O)(=O)c1ccc(-c2ccccc2)cc1)C(=O)O (configuration not stated)
i,>57,COc1ccc(C(=O)NCC(=O)OCC(=O)NC(=O)NC2CCCCC2)cc1OC
i,>57,CC(C)Cn1c(=O)c2c(c3ccccc31)OC(C)C(=O)N2 (configuration not stated)
i,>57,CC(C)OC(=O)c1c(NC(=O)CCn2nnc3ccccc32)sc2c1CCCC2
i,>57,CC(=O)NC1(C(F)(F)F)NC(=O)N(CC(C)C)C1=O (configuration not stated)

# Looked up above.
# PK Bst, CCOC(=O)N1CCC2(CC1)C(C#N)=C(N)Oc1c2c(C)nn1-c1cccc(Cl)c1 → >57
# PK Bst, CCOC(=O)N1CCN(S(=O)(=O)c2ccc(OCC(=O)OC)c(C)c2)CC1 → >57

# New compounds follow.
TsaE inh,PK Bst,molecule
i,>57,O=CN(Cc1ccco1)C1(C(=O)NC2CCCCC2)CCCCC1
i,>57,COCCN1C(=O)c2ccc(C(=O)NCc3cccnc3)cc2C1=O
i,x,Cc1nc2ccccc2c2oc(C(=O)N3CCN(C(=O)c4ccco4)CC3)cc12
i,>57,O=C1CC(C(=O)N2CCOCC2)C2(CCCC2)O1 (configuration not stated)
i,>57,COc1cc(O)c2c(c1)OC(C)(C)CC2=O
i,>57,COc1ccc(-n2nnnc2SCC(=O)Nc2cccc(C)n2)cc1OC
i,x,COCCNc1ccnc(-c2ccccc2CN(C)C)n1
i,>57,CCN(CC)S(=O)(=O)c1ccc(S(=O)(=O)Nc2cc3c(cc2C(C)=O)OCO3)cc1
i,x,CCCCN(CCCNc1ncnc2nc[nH]c12)c1ccccc1
i,>57,COc1cc(-n2nc(C)c3c2OC(N)=C(C#N)C3c2ccccc2)c(Cl)c(Br)c1O (configuration not stated)
i,>57,Cc1cc(C)c2[nH]c(=O)c(CN(Cc3nnnn3C3CCCC3)C3CCCCC3)cc2c1
i,x,O=C(COc1ccccc1)OCc1cc2ccccc2[nH]c1=O
i,x,CN(C)c1ccc2nc3c(C(=O)O)cc(=O)c(O)c-3oc2c1
i,>57,O=C(Nc1cccc2ccccc12)OC1C=CS(=O)(=O)C1 (configuration not stated)
i,>57,COc1ccc(C2c3c(oc4ccccc4c3=O)C(=O)N2CCN2CCOCC2)cc1OC (configuration not stated)
i,x,COC(=O)/C=C/S(=O)(=O)c1ccc(NC(C)=O)cc1
i,>57,CCNC(=O)Cn1cnc2c1c(=O)n(C)c(=O)n2C
i,>57,O=C(Nc1nnc(SCc2ccccc2)s1)c1cccs1
i,>57,CCOC(=O)c1c(C)[nH]c(C)c1C(=O)CSc1nnc(-c2cc(OC)c(OC)c(OC)c2)o1
x,>11.4,CC(C)(C)c1ccc(O)c(N)c1
i,>57,O=C(NC1CCSC1=O)c1cccc(C(=O)NC2CCSC2=O)c1 (configuration not stated)
i,x,CN(C(=O)c1ccccc1C(=O)O)C1CC(C)(C)NC(C)(C)C1
i,>57,O=C1CCCN1CCC1CCN(C2CC(=O)N(c3ccc(Cl)cc3)C2=O)CC1 (configuration not stated)
i,x,CC(=O)Nc1ccc(-c2cc(C(=O)O)c3cc4ccccc4cc3n2)cc1
i,>57,O=C(Nc1ccc(Cl)cc1)N(Cc1nnc2n1CCCCC2)c1ccccc1
i,x,CCN(CCNC(=O)Cn1cc2c(n1)CCCC2)c1ccccc1
i,>57,CCN1C(=O)CC(N2CCC(Cc3ccccc3)CC2)C1=O (configuration not stated)
i,>57,O=C(NCc1ccc2c(c1)OCO2)c1cccc(N2CCCC2=O)c1
i,>57,COc1ccc(-c2noc(C3CCCN(C(=O)c4ccccc4OC)C3)n2)cc1OC (configuration not stated)
i,x,N#CCCn1c(=O)c(-c2cccc(C#N)c2)nc2cnc(Oc3ccccc3)nc21
i,>57,COCc1nnc(NC(=O)c2ccc(S(=O)(=O)N3CCCCCC3)cc2)o1
i,>57,Cc1ccc(Cl)cc1N1CCN(C(c2cccnc2)c2nnnn2C2CCCCC2)CC1 (configuration not stated)
i,>57,CCOC(=O)C1=C(C)Nc2nc3ccccc3n2C1c1ccncc1 (configuration not stated)
i,x,c1ccc(CNc2ccnc(-c3ccc4c(c3)OCO4)n2)cc1
i,>57,O=C(CN1C(=O)NC(Cc2ccccc2)C1=O)NC(=O)NC1CCCCC1 (configuration not stated)
i,u,Cc1ccc(S(=O)(=O)Cn2nnnc2C(C(C)C)N2CCc3ccccc3C2)cc1 (configuration not stated)
i,x,Cc1ccccc1OCC(=O)Nc1ccccc1N1CCOCC1
i,x,N#Cc1cccc(NC(=O)N2CCCC3(CCN(C(=O)c4cnccn4)CC3)C2)c1
i,>57,COc1ccc(OC)c(NC(=O)CSc2nnnn2-c2ccc3c(c2)OCO3)c1
i,x,CC(C)C(C(=O)Nc1ccc(N2CCOCC2)cc1)N1C(=O)c2ccccc2C1=O (configuration not stated)
i,x,CN(C)c1nc2c(c(=O)[nH]c(=O)n2C)n1Cc1ccc(F)cc1
i,>57,Cc1ccc2cc(C(c3nnnn3CC3CCCO3)N3CCc4ccccc4C3)c(=O)[nH]c2c1 (configuration not stated)
i,x,Cn1ccc(O)c(C#N)c1=O
x,>25.6,COc1nc(NS(=O)(=O)c2ccc(C)cc2)nc(C)c1Cl
i,x,C(=C\c1ccccc1)/C=N/n1cnnc1
i,x,COc1ccc(Cl)cc1NC(=O)CSc1nnc(Cn2c(=O)sc3ccccc32)n1C
i,>57,O=C(CN(C(=O)CCNC(=O)c1ccco1)c1ccccc1)NC1CCCC1
x,>11.4,COC(=O)c1cc(Br)c(=O)n(Cc2ccc3c(c2)OCO3)c1
i,>57,CCNC(=O)CC(=O)Nc1ccccc1C(=O)O
i,>57,COc1ccc(OC)c(CCNC(=O)CS(=O)(=O)Cc2nc(-c3ccc(C)cc3)oc2C)c1

# (continued)
TsaE inh,PK Bst,molecule
i,>57,CCCCCn1c(Br)nc2c1c(=O)n(CC(N)=O)c(=O)n2C
i,>57,Cc1cccc(-c2nsc(SCC(=O)Nc3cc(C)on3)n2)c1
i,>57,CCOc1ccc(C)cc1S(=O)(=O)N1CCCCC1
i,>57,CCOC(=O)C1C(=O)NC(SCC(=O)Nc2nccs2)=C(C#N)C1c1ccccc1OCC (configuration not stated)
i,>57,CCOc1ccccc1NC(=O)C1CCCN(S(=O)(=O)c2ccc(OC)c(C)c2)C1 (configuration not stated)
i,u,NS(=O)(=O)c1ccc(Nc2nc(-c3ccc(O)cc3)cs2)cc1
i,>57,Cn1c(SCc2nnc(-c3ccc(F)cc3)o2)nnc1C1COc2ccccc2O1 (configuration not stated)
i,x,COc1ccc(-c2nc(N3CCOCC3)nc3n[nH]c(N)c23)cc1
i,>57,COc1cc(-c2nnc(SCc3cc(=O)oc4cc(C)ccc34)o2)cc(OC)c1OC
i,>57,Cc1ccc2cc3cc(C(=O)NCCC(C)C)oc3nc2c1
i,>57,CCCCc1c(O)nc(SCC(=O)NCCc2ccc(OC)c(OC)c2)[nH]c1=O
i,x,CCOc1ccccc1C1N(c2ccc(OC)cc2)C(=O)C2CCCN21 (configuration not stated)
i,u,COc1cc(=O)[nH]c(SCc2c(F)c(F)c(F)c(F)c2F)n1
i,>57,O=C(NCc1ccc(F)cc1)C1CCCN1C(=O)NCc1ccccc1 (configuration not stated)
i,>57,O=C(Nc1ccc(Cl)c(Cl)c1)N1CCSC1c1ccco1 (configuration not stated)
i,>57,CC(C)c1nnc(NC(=O)c2c(O)c3cccc4c3n(c2=O)CC4)s1
i,x,CCOC(=O)c1c(NC(=O)c2cccs2)sc2c1CCC2
i,x,Cc1ccccc1OCCCN1C(=O)C(=O)c2cccc(C)c21
i,i,CCOC(=O)N1CCN(c2cc(NCCC(=O)O)c3c4c(onc24)-c2ccccc2C3=O)CC1
i,>57,CCOC(=O)C1CCN(C(=O)Nc2ccc3snnc3c2)CC1
i,x,CC(C)CN1CCC2(CC1)CCN(C(=O)c1cc(C(F)(F)F)cc(C(F)(F)F)c1)CC2
i,>57,CCCNc1nc2c(c(=O)[nH]c(=O)n2C)n1Cc1cccc(Br)c1
i,>57,CCn1c(CSc2nnc(-c3ccc4c(c3)OCO4)o2)nc2cc(S(=O)(=O)N(C)C)ccc21
i,>57,COC(=O)c1ccccc1NC(=O)CN(CCc1ccccc1)S(C)(=O)=O
i,>57,c1ccc(-c2nnc(N3CCN(c4ccccn4)CC3)c3ccccc23)cc1
i,>57,COC(=O)c1ccccc1NC(=O)c1noc2c1CCC2
i,x,c1ccc(C2=NN[C@@H]3c4ccccc4-c4ccccc4N3C2)cc1
i,x,Cc1cc(=Nc2ccc3c(c2)c(N)cc(C)[n+]3C)nc(N)n1C
i,>57,O=C(CCNS(=O)(=O)c1cccc2nonc12)NCCc1ccc(Cl)cc1
i,>11.4,CN(C)S(=O)(=O)c1ccc(C(=O)Nc2ccccc2C(=O)O)cc1
i,>57,Cc1nc(Nc2ccc(S(N)(=O)=O)cc2)oc1C
i,>57,COCCCNC(=O)C1CCC(=O)N1Cc1ccccc1Cl (configuration not stated)
i,x,CN1CCN(c2ncc3ncc(=O)n(Cc4ccc(F)cc4)c3n2)CC1
i,>57,CN(C(=O)c1ccc(Cl)cc1)C1=CCCCC1CCC#N (configuration not stated)
i,>11.4,CCC(C)(C)NC(=O)CN(C(=O)c1snc(C(N)=O)c1N)c1ccc2c(c1)OCCO2
i,>57,CCOC(=O)Cc1c(C)c2c(C)[nH]nc2oc1=O
i,>57,CC1(C)Cc2c(C#N)c(N)n(-c3ccccc3)c(=O)c2CO1
i,>57,O=C(NCc1cccnc1)c1ccccn1
i,>57,N#CCSc1nnc(COc2cccc3ccccc23)n1-c1ccccc1
i,x,Cn1c(-c2ccc(N)cc2)nc2ccccc21
i,i,O=C(C1CCCN(S(=O)(=O)c2ccc(Cl)cc2)C1)N(Cc1cccs1)C1CC1 (configuration not stated)
i,x,CCNc1ncc2nc(-c3cccs3)c(=O)n(CCc3ccccc3)c2n1
i,>57,COc1cc(C(=O)Nc2c(C)cc(C)cc2C)c(-n2cnnn2)cc1OC
i,x,Cc1cc(=O)[nH]c2n[nH]c(-c3ccccc3)c12
i,>57,CCN=C1SC(C(=O)Nc2cccc(OCC)c2)CC(=O)N1CC (configuration not stated)
i,>57,Cc1cc(OCC(=O)O)c2ccccc2n1
i,>57,CCOc1ccc(-c2nnn(CC(=O)N3CCN(c4ccc(F)cc4)CC3)n2)cc1OCC
i,>57,COC(=O)C1=C2SC(C)C(=O)N2C(N)=C(C#N)C1c1ccc(OC)c(OC)c1 (configuration not stated)
i,>57,C=CCc1ccccc1OCC(O)CN1CCN(C(=O)OCC)CC1 (configuration not stated)
i,x,Cc1ccc(C)c(N2CCN(C(=O)CCc3nc4ccccc4[nH]3)CC2)c1
i,>57,CCOCC(=O)Nc1nnc(COCC)s1

# Profiles, looked up by structure. Order of values: TsaE inh, PK Bst
# CN1CCN(c2ncc3ncc(=O)n(Cc4ccc(F)cc4)c3n2)CC1 is listed with i, x
# N#CCSc1nnc(COc2cccc3ccccc23)n1-c1ccccc1 is listed with i, >57

# An excerpt of these results, field by field.
CN(C)S(=O)(=O)c1ccc(C(=O)Nc2ccccc2C(=O)O)cc1
- TsaE inh: i
- PK Bst: >11.4
Cc1nc(Nc2ccc(S(N)(=O)=O)cc2)oc1C
- TsaE inh: i
- PK Bst: >57
COCCCNC(=O)C1CCC(=O)N1Cc1ccccc1Cl (configuration not stated)
- TsaE inh: i
- PK Bst: >57
CN1CCN(c2ncc3ncc(=O)n(Cc4ccc(F)cc4)c3n2)CC1
- TsaE inh: i
- PK Bst: x

# A portion of the library, so the mix of outcomes need not match the whole.
